Sa helicase inh: inhibitors of S. aureus replicative helicase, primary screen, biochemical, fluorescence unwinding readout. 120,000 tested, 0.05% active. inhibition, %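 (tested at about 80 µM)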. purified S. aureus helicase, fluorescence unwinding assay; about half of the hits fall short of the stated cut. AID 485395, 2010;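 active = both duplicates at 50% or more, or one of them with a favoured structure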;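 note: 0% = mean of negative control wells and 100% = mean of positive control wells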
MgrA-DNA mod: S. aureus MgrA activity modulators, primary screen, biochemical, S. aureus Newman, fluorescence polarization. MgrA-DNA binding. inhibition, %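 (about 10 µg/mL by stock and volumes)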. 84,000 tested, 0.13% active;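 active = above 50% in either of two replicates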;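 note: 0% = protein plus DNA without compound and 100% = DNA alone without protein; higher means less MgrA bound to DNA so lower polarization; one replicate is shown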
Active calls of the source: *; / = not tested or not shown; & = joins results of further samples. Not all compounds are listed, so the mix of outcomes need not match the whole.

Compound,Sa helicase inh,MgrA-DNA mod
CCN1CCN(CCCNC(=O)c2ccc3nc(/C=C(\O)c4cccc(OC)c4)c(=O)[nH]c3c2)CC1,-70.0,/
Cc1cc(-c2nnc(-c3ccccc3)c(-c3ccccc3)n2)c(C)o1,-1.0,/
O=S(=O)(NCc1cccs1)c1ccccc1,/,0.0
CN(CCO)c1nc(-c2ccccc2)c2cc(Br)ccc2n1,7.0,8.9
CCOc1cc(C=C2C(=O)N(C)C(=O)N(C)C2=O)ccc1OCCOc1ccccc1C,/,-0.9
OCCn1nc2c3ccccc3nc-2n(-c2ccccc2)c1=S,15.0,/
CC(=O)N/C(N)=N\c1nc(=O)c2ccccc2s1,-39.0,/
Cc1nn(-c2ccccc2)c2nc(Cl)c(C=C(C#N)C#N)cc12,-121.0,/
Cc1cccc(C(=O)NCc2nnc(SCC(=O)c3ccccc3)n2C)c1,2.0,2.5
Nc1nc(CSc2nc(N)c3[nH]cnc3n2)cs1,/,1.0
Cc1nccn1-c1c2c(c(C#N)c3nc4ccccc4n13)CCCC2,5.0,-0.6
CC(C)NC(=O)C1CCN(C(=O)N2CCOc3ccccc32)CC1,16.0,/
O=C(NCCCN1CCOCC1)c1cccnc1SCc1ccccc1Cl,11.0,/
O=C(Nc1cccc(F)c1)c1cc(S(=O)(=O)NCCc2ccccc2)ccc1F,1.0,-1.4
c1coc(CNc2c(-c3ccc(N4CCCC4)cc3)nc3cnccn23)c1,-1.0,0.5
CC(Oc1ccccc1F)C(=O)N1CCN(C(c2ccccc2)c2ccccc2)CC1 (stereo not given),-10.0,/
CCN(CC)S(=O)(=O)c1ccc(NC(=O)C2=NN(c3ccccc3)C(=O)CC2)cc1,-7.0,/
Cc1ccc2cc3cc(C(=O)NC4CCCCC4)oc3nc2c1,7.0,/
CCC(C)(C)NC(=O)Cc1ccc2c(c1)OCCO2,1.0,/
NC(=S)/C(=C\c1ccccc1O)C(=O)O,23.0,/
O=C(NC1CCCCC1)/C(=C/C=C\c1ccccc1)NC(=O)c1ccccc1,9.0,-0.4
Cc1onc(-c2c(Cl)cccc2Cl)c1C(=O)OC1=CC(=O)CC(C)(C)C1,/,-2.4
Cc1ccc(Sc2ncccc2-n2cccc2)cc1,/,-2.2
COc1ccc(S(=O)(=O)Nc2cc(Cl)c3oc(=O)sc3c2)cc1OC,22.0,/
CCCS(=O)(=O)/C(C#N)=C/c1cc(C(F)(F)F)cc(C(F)(F)F)c1,/,0.2
Cc1c(Cl)cccc1-n1c(SCc2cc(=O)n3ccccc3n2)nc2n[nH]c(C)c2c1=N,9.0,-0.4
CN(C)CC#Cc1ccc(-c2ccn[nH]2)s1,/,-3.2
O=C(NCC1CCCO1)/C(=C/c1ccccc1)NC(=O)c1ccccc1 (stereo not given),-3.0,-0.7
CCNc1nc2c(c(=O)n(C)c(=O)n2C)n1CC,-7.0,0.5
COC(=O)c1sccc1S(=O)(=O)Nc1ccccc1,21.0,/
O=C(/N=C1/c2ccccc2CN1c1ccccc1)Nc1ccccc1,-6.0,/
c1ccc(Nc2nc(N3CCCCC3)c3ccccc3n2)cc1,8.0,/
O=C(CC1c2ccccc2CCN1S(=O)(=O)c1cccs1)OCC(=O)c1ccc(Cl)s1 (stereo not given),-19.0,/
O=C(O)C(Oc1ccc2c3c(c(=O)oc2c1)CCCC3)c1ccccc1 (stereo not given),4.0,-0.5
CCOc1ccc2c(C)cc(=O)oc2c1,-7.0,/
CN(C)[C@@H]1C(=O)C(C(N)=O)=C(O)[C@@]2(O)C(=O)C3=C(O)c4c(O)ccc(Cl)c4[C@@H](O)[C@H]3C[C@@H]12,/,-1.6&-0.8
COc1cc(S(=O)(=O)N2CCC(n3c(=O)[nH]c4ccccc43)CC2)ccc1-n1cnnn1,-17.0,/
Cc1cc(C)cc(OCC(=O)N2Cc3ccccc3CC2C(=O)O)c1 (stereo not given),-8.0,/
CCOC(=O)c1ccc2nc(C(F)(F)F)cc(N3CCN(c4ccccc4)CC3)c2c1,/,2.4
Cc1onc(-c2ccccc2)c1CN1CCOCC1,/,-1.9
COc1ccccc1C1=NOC(Cn2c(NCc3ccccc3)nc3c2c(=O)n(C)c(=O)n3C)C1 (stereo not given),-28.0,/
CCc1ccc(/C=c2\sc3nc(C4COc5ccccc5O4)nn3c2=O)cc1 (stereo not given),9.0,3.3
COC(=O)c1ccc(NC(=O)C(C)Sc2n[nH]c(C)n2)cc1 (stereo not given),17.0,0.7
Cc1ccc2c(c1)N(C(=O)NCc1ccccc1)CC(C)O2 (stereo not given),4.0,-1.2
Cc1nnc(SCC(=O)NCC2CCCO2)n1C1CCCCC1 (stereo not given),-1.0,/
Cc1ccc(-c2nsc(SCC(=O)NCc3ccc4c(c3)OCO4)n2)cc1,-6.0,1.2
Nc1c(O)cccc1C(=O)CC(N)C(=O)O (stereo not given),/,0.4
COc1c(Cl)cc(C(=O)N(Cc2ccc(N(C)C)cc2)Cc2ccco2)cc1Cl,-3.0,/
Cn1c(-c2cccs2)nc2ccccc21,/,4.1
CSc1ccccc1C(=O)NC1CCCCC1,6.0,1.1
Cc1cc(C)c2c(N)c(C(=O)N3CCCc4ccccc43)sc2n1,12.0,/
Cc1ccc(OCc2nc(CC(=O)O)cs2)cc1,23.0,/
COc1ccc(C(N)CCO)cc1OC (stereo not given),/,2.0
O=C(NC(C(=O)OCN1C(=O)c2ccccc2C1=O)c1ccccc1)c1ccccc1 (stereo not given),11.0,/
COc1ccc2c(c1OC)C(=O)OC2C/C(=N\NC(N)=O)c1ccccc1 (stereo not given),5.0,/
COC(=O)c1ccc(Cn2cc(Br)cn2)cc1,-2.0,-1.0
Cc1nn(C2CCS(=O)(=O)C2)c2nc(C3CC3)cc(C(=O)NC3CCCCCC3)c12 (stereo not given),-1.0,/
N#C/C(=C\Nc1ccccc1F)c1nc(-c2cc3ccccc3oc2=O)cs1,13.0,0.5
N=C(N)SCCS(=O)(=O)c1ccccc1,-15.0,0.4
Cc1[nH]c2ccccc2c1C1(O)C(=O)N(C(C)C)c2ccccc21 (stereo not given),9.0,1.4

Arranged by the number under Sa helicase inh (smallest number first): 6 from the list above
mol | Sa helicase inh
COc1cc(S(=O)(=O)N2CCC(n3c(=O)[nH]c4ccccc43)CC2)ccc1-n1cnnn1 | -17.0
CCN(CC)S(=O)(=O)c1ccc(NC(=O)C2=NN(c3ccccc3)C(=O)CC2)cc1 | -7.0
Cc1ccc2cc3cc(C(=O)NC4CCCCC4)oc3nc2c1 | 7.0
Cc1[nH]c2ccccc2c1C1(O)C(=O)N(C(C)C)c2ccccc21 (stereo not given) | 9.0
COC(=O)c1sccc1S(=O)(=O)Nc1ccccc1 | 21.0
Cc1ccc(OCc2nc(CC(=O)O)cs2)cc1 | 23.0

Later entries
Compound,Sa helicase inh,MgrA-DNA mod
COc1cccc(C2CC(=O)NC(SC)=C2C#N)c1 (stereo not given),8.0,0.8
Cc1ccc(S(=O)(=O)C(F)F)cc1,-20.0,/
C(=C\c1ccccc1)/CSc1nnnn1-c1ccccc1,-2.0,/
COc1ccc(C(=O)NCCN2CCOCC2)c(OC)c1,-11.0,/
CC(C)N(Cc1ccccc1)S(=O)(=O)c1ccccc1,/,4.8
CC1=C(/C=C/C(C)=C\C=C\C(C)=C\C(=O)O)C(C)(C)CCC1,/,-0.8
CC1(C(=O)Nc2ccccc2N2CCOCC2)Cc2ccccc2C(=O)O1 (stereo not given),-17.0,/
CC(NC(=O)C1C2C=CC(C2)C1C(=O)O)C12CC3CC(CC(C3)C1)C2 (stereo not given),14.0,23.9
Cc1nc(-c2cc(-c3nc(-c4ccc(C(C)(C)C)cc4)no3)no2)cs1,/,0.5
CC(=O)Oc1cc2c(cc1Br)C1CCC3(C)C(OC(C)=O)CCC3C1CC2 (stereo not given),18.0,-0.1
N=C1C(c2ccccc2)=C(O)CN1NC(=O)CSc1nc2ccccc2[nH]1,-6.0,/
Cc1cccc(N=C2NC(=O)/C(=C/c3ccc(F)cc3)S2)c1C,5.0,0.5
O=c1c(-c2ccccc2)c(O)c2ccccc2n1-c1ccccc1,/,4.5
O=c1cc(Nc2cccc(O)c2)c2ccccc2o1,-5.0,4.6
Cc1c(C(=O)N2CC(C)OC(C)C2)oc2ccccc12 (stereo not given),7.0,2.3
Cc1cc(Oc2ccc([N+](=O)[O-])cn2)cc(C)c1Cl,/,-4.0
CCCCNc1ncc2c(n1)c(=O)c(C#N)c1[nH]c3ccccc3c(=O)n12,10.0,/
Cc1cc(C(=O)Nc2cnn(Cc3ccccc3C)c2)no1,8.0,/
Cn1c(=O)c2c(ncn2CC(=O)NCc2ccco2)n(C)c1=O,-5.0,1.9
CCC(=O)Nc1nnc(SCc2cccc(F)c2)s1,-3.0,/
COC(=O)c1sc(-c2ccc(Cl)cc2)cc1NC(=O)c1ccc2nsnc2c1,/,-0.8
CCOc1ccc2nc(SCC(N)=O)[nH]c2c1,21.0,/
O=C1/C(=C/c2cccc(F)c2)COc2ccccc21,12.0,/
Cc1cc(C)nc(SC2CCCCC2NS(=O)(=O)c2ccccc2)n1 (stereo not given),-19.0,/
CCOc1ccc(C=C2C(=O)N(CC)C(=S)N(CC)C2=O)c(O)c1,-39.0,/
C(=C\c1ccccc1)/CN1CCNCC1,4.0,-0.4
Cc1cc(C2(c3cc(C)c(N)c(C)c3)CCCCC2)cc(C)c1N,-1.0,-0.5
O=S(=O)(Nc1ccccc1NS(=O)(=O)c1ccc(F)cc1)c1ccc(F)cc1,-11.0,/
CCc1ccc(N2CN(CCc3ccccc3)CNC2=S)cc1,-34.0,/
O=C(CSc1oc(-c2ccccc2)nc1S(=O)(=O)c1ccccc1)Nc1ccc(F)cc1,14.0,0.6
COc1cccc(N2CCN(CC(=O)c3ccc4ccn(C(C)=O)c4c3)CC2)c1,10.0,/
O=C1C2ON(c3ccc(Br)cc3)C(c3cccnc3)C2C(=O)N1c1ccccc1 (stereo not given),1.0,/
Cc1[nH]c2ccccc2c1C(=O)CSc1nc2cc(S(=O)(=O)N3CCCCC3)ccc2o1,8.0,/
CCn1c(SC)nnc1C1CCCN(C(=O)c2ccccc2-c2ccccc2)C1 (stereo not given),-1.0,0.6
O=C(CCc1ccc(S(=O)(=O)N2CCOCC2)cc1)N1CCN(Cc2ccccc2)CC1,-12.0,/
CSc1nc(-c2ccco2)nn1C(=O)c1ccccc1,10.0,3.4
CC(C)(C)c1ccc(C(=O)N2NC(=Nc3ccccc3)SC2(C)C)cc1,/,-0.2
C=CCn1c2ccccc2c2nnc(SCc3ccccc3C)nc21,13.0,3.8
O=C1CN(C(=O)COC(=O)C2CCN(S(=O)(=O)c3ccccc3)CC2)c2ccccc2N1,28.0,/
O=S(=O)(c1cccc2nsnc12)N1CCCCC1,2.0,-0.7
N#Cc1ccc(OCC(=O)c2ccccc2)cc1,-4.0,-4.8
FC(F)(F)c1ccncc1-c1nnc(C2CCCCC2)o1,/,-4.0
Cc1csc(=NC(=O)c2ccccc2)n1Cc1ccco1,-8.0,/
O=C(Nc1cccc(F)c1)C1C2C=CC3(CN(CCCN4CCOCC4)C(=O)C13)O2 (stereo not given),7.0,/
Cn1nc(C(=O)N2CCN(C3CCS(=O)(=O)C3)CC2)c2ccccc2c1=O (stereo not given),7.0,/
CC(=O)OC1CCN(CCc2ccccc2)C(C)C1C (stereo not given),-2.0,/
O=C(O)c1cccc(NCc2ccncc2)c1,-2.0,0.7
O=C(COc1cccc2ccccc12)Oc1ccc(-c2nnco2)cc1,5.0,/
Cc1scc(CN2CCOCC2)c1C,2.0,-4.4
CSCCC(NCc1ccccc1O)C(=O)O (stereo not given),/,-4.0
CCC1CCCCN1C(=O)COc1cccc2c1OC(C)(C)C2 (stereo not given),-10.0,/
O=C(Nc1ccccc1F)Nc1ccccc1N1CCCCC1,-18.0,/
CCOc1ccc2c3c(c(=O)oc2c1OCC)CCC3,-9.0,-2.4
O=C(OCC(=O)N1CCC(c2ccccc2)=N1)C1CC2CCCC(C1)C2=O (stereo not given),-39.0,/
Cc1ccn(-c2ccccc2)n1,2.0,/
CN(Cc1ccccc1)C(=O)Cn1ncc2c1-c1ccccc1OC2,-7.0,/
CCCC(=O)Nc1ccc2c(c1)c1ccccc1n2CC,13.0,4.0
Cc1ccc2nsnc2c1C,/,3.0

Molecules from the list above that contain bromine, in the order listed:
Compound,Sa helicase inh,MgrA-DNA mod
CN(CCO)c1nc(-c2ccccc2)c2cc(Br)ccc2n1,7.0,8.9
COC(=O)c1ccc(Cn2cc(Br)cn2)cc1,-2.0,-1.0
CC(=O)Oc1cc2c(cc1Br)C1CCC3(C)C(OC(C)=O)CCC3C1CC2 (stereo not given),18.0,-0.1
O=C1C2ON(c3ccc(Br)cc3)C(c3cccnc3)C2C(=O)N1c1ccccc1 (stereo not given),1.0,/
